# SARS PLpro yeast = SARS-CoV PLP inhibition in yeast. S. cerevisiae expressing SARS-CoV PLpro, growth rescue; control for the full effect not named in the record. Potency, µM (series often up to 32.9 µM), without a hit: top-dose activity, positive = growth rescue. hit rate 0.19% among 330,000. AID 485353; active means well fitted rising curve with a large enough effect; inconclusive means small, poorly fitted or top-dose-only effect; inactive means no such curve, though single readings can be large or run the other way; note: 0% is about no effect; nearly all actives have a fitted effect of over 55% in size; growth read by luminescence after 48 h
# RE007 growth inh = less growth of the S. pombe RE007 Vpr strain; S. pombe RE007 Vpr strain, BacTiter-Glo ATP luminescence, 24 h; control for the full effect not named in the record; Potency, µM (series often up to 92.2 µM), inactives show at the top dose activity change, negative = less growth; hit rate 0.21% among 360,000; active = well fitted falling curve with a large enough effect; inconclusive = small, poorly fitted or top-dose-only effect; inactive = no such curve, though single readings can be large or run the other way;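 note: % is set by controls: 0 for no effect and ±100 for the full control effect; nearly all actives have a fitted effect of over 50% in size; the assay follows cell death caused by Vpr and the record does not say whether a fall means rescue or toxicity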
#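 Fission yeast RE007 carrying one integrated HIV-1 vpr copy, seeded at OD 0.01 in PMG+AL medium with 23 nL pinned compound. Grown 24 h at 30 degrees; viability read by BacTiter-Glo luminescence after 5 min.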
# Cruzain inh noDet = cruzain (T. cruzi) inhibition without detergent; purified cruzain, Z-FR-AMC fluorescence, no detergent; Potency, µM, inactives show max response, negative = inhibition, most hits filed as inhibitors; hit rate 2.3% among 200,000; P25779;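 note: plate controls were enzyme without inhibitor for no effect and buffer without enzyme for full effect; nearly all actives have a fitted effect of over 40% in size; top concentration of the series not given in the record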
# Target sequence (P25779 123-467 limits assumed): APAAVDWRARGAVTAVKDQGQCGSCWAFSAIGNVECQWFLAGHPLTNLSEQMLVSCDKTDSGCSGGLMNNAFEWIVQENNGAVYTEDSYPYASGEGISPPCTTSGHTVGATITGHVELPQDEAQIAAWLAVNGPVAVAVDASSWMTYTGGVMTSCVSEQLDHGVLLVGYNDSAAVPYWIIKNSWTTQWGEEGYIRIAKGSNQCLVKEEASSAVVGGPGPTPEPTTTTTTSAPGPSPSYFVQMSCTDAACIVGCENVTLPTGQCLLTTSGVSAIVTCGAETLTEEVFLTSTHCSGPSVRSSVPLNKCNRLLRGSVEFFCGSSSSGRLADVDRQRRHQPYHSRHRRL
#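 Detergent-free condition (0.00005% Triton X-100) in acetate buffer pH 5.5 with DTT. 1.5 nM enzyme and compound were pre-mixed 15 min, then 2 uM Z-FR-AMC substrate added; reaction progress from fluorescence change between first and third reads (60 s).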
# 2A StopGo = lowers the luciferase signal of an FMDV 2A StopGo reporter | AID 1159524 | human cells with a luciferase reporter of 2A StopGo recoding; control for the full effect not named in the record | hit rate 1.2% among 410,000 | Potency, µM (series often up to 57.9 µM), for inactives: at the highest dose signal change, negative = less light; active = well fitted falling curve with a large enough effect; inconclusive = small, poorly fitted or top-dose-only effect; inactive = no such curve, though single readings can be large or run the other way; tested in HEK293T cells; note: % is set by controls: 0 for no effect and ±100 for the full control effect; nearly all actives have a fitted effect of over 45% in size; luciferase light after 4 h
# Cruzain Triton = cruzain (T. cruzi) inhibition with detergent; P25779; Potency, µM, inactives show max response, negative = inhibition, usual class: inhibitors; AID 1478; purified cruzain, Z-FR-AMC fluorescence, 0.01% Triton; hit rate 0.43% among 200,000;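 note: plate controls were neutral wells for no effect and buffer without enzyme for full effect; nearly all actives have a fitted effect of over 40% in size; top concentration of the series not given in the record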
#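 Detergent-containing arm of a paired screen for aggregation-based inhibition: 0.01% Triton X-100 present. Cruzain at 1.5 nM cleaved 2 uM Z-FR-AMC at pH 5.5 with 5 mM DTT; AMC fluorescence gain over 60 s measured activity.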
# MARV entry inh = blocks Marburg virus binding to or entry into cells; Potency, µM (doses to about 37.8 µM), for inactives: at the top dose activity change, negative = inhibition, actives largely listed as inhibitors; hit rate 1.8% among 300,000; Marburg virus pseudotyped entry inhibition, cell reporter; control for the full effect not named in the record; about a third of the inactives were read at about 46 µM; active = well fitted inhibition curve with a large enough effect; inconclusive = small, poorly fitted or top-dose-only effect, or effect the other way; inactive = flat fitted curve, though single readings scatter; tested in HEK293 cells; about a fifth of its hits are not listed in these tables; note: % is set by controls: 0 for no effect and ±100 for the full control effect; luciferase read-out
# LASV entry inh = Lassa virus entry inhibition; Potency, µM (highest dose often 37.9 µM), for the others: at the top dose activity change, negative = inhibition, actives largely listed as inhibitors; Lassa virus pseudotype entry inhibition, cell reporter; control for the full effect not named in the record; hit rate 1.2% among 300,000; active means well fitted inhibition curve with a large enough effect; inconclusive means small, poorly fitted or top-dose-only effect, or effect the other way; inactive means flat fitted curve, though single readings scatter; tested in HEK293 cells; note: % is set by controls: 0 for no effect and ±100 for the full control effect; nearly all actives have a fitted effect of over 50% in size; luciferase read-out
# NS1 inh = blocks influenza NS1 protein function; S. cerevisiae slowed by influenza A NS1, growth recovery by OD600; Potency, µM (doses to about 46.1 µM), inactives show at the highest dose activity, positive = more growth; hit rate 0.4% among 270,000; AID 2326; active means well fitted rising curve with a large enough effect; inconclusive means small, poorly fitted or top-dose-only effect; inactive means no such curve, though single readings can be large or run the other way; note: nearly all actives have a fitted effect of over 50% in size
#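 S. cerevisiae expressing influenza A NS1, grown in glucose, washed, then diluted 1:100 into pH 6.0 -URA galactose medium with 23 nl compound. Growth recovery read as OD600; NS1-free strain serves as control.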
# * marks the source's active call; other numbers are inactive results; ? = inconclusive; . = no result given; & = joins results of further samples; [ ] = dose if it differs, or a comment. Unless noted, calls come from the whole dose curve; as a rule, active = well fitted curve in the direction sought with a large enough effect; inconclusive = small, poorly fitted or top-dose-only effect, or another doubt; inactive = no such curve, though single readings can be large; an effect the other way counts as inactive or inconclusive. Potency is the fitted concentration of half-maximal effect.
SMILES	SARS PLpro yeast	RE007 growth inh	Cruzain inh noDet	2A StopGo	Cruzain Triton	MARV entry inh	LASV entry inh	NS1 inh
CCN1CCN(CC(O)COc2cccc(OC)c2)CC1 (stereo not given)	-0.7%	13.2%	-5.2%	-12.1%	8.9%	2.5%	13.4%	1.3%
Cc1oc(-c2cccs2)nc1CN1CCC(C(=O)N2CCCC2)CC1	0.8%	0.5%	.	-13.9%	.	2.8%	5.2%	4.4%
O=C(Nc1ccc(O)cc1)c1ccc(NC(=O)c2ccco2)cc1	-1.5%	0.3%	.	37.9%[activator]	.	?	18.5%	3.9%
COc1cc(Cl)ccc1OCc1cc(C(=O)N2CCN(C)CC2)no1	0.1%	-12.4%	.	-9.3%	.	.	.	10.2%
Cc1cc(C)c2c(N)c(C(=O)N/N=C/c3cccnc3)sc2n1	-1.3%	-3.8%	.	40.8%[activator]	.	?	-2.4%	-9.8%
Cc1cc(NC(=O)Nc2c[nH]c(=O)[nH]c2=O)ccc1Br	1.3%	-6.4%	.	-1.2%	.	-3.4%	.	-0.1%
COc1ccc(CN(CC2CCC(C(=O)O)CC2)C(=S)Nc2ccccc2C)cc1 (stereo not given)	1.8%	-11.1%	.	-16.1%	.	-6.2%[46.1 µM]	1.6%[46.1 µM]	.
COc1cc2c(cc1OC)n(CC(=O)NC1CCCCCC1)n1c(C)cc(=O)nc21	-3.9%	1.8%	.	-12.2%	.	.	.	1.0%
CCC(C)(C)c1ccc(O)cc1	-4.7%	-13.9%	1.2%	-24.0%	-4.0%	.	.	.
CCO[C@@H]1OC(C(=O)N2CCOCC2)=C[C@H](c2ccc(C(F)(F)F)cc2)[C@H]1CCCO	-1.8%	6.4%	.	-23.0%	.	.	.	0.8%
CC(=O)c1ccc(C)cc1OC(=O)c1cccc(F)c1	4.1%	-8.6%	.	-15.0%	.	?	-1.2%	.
COc1cc(/C=C2\SC(=O)N(c3ccccc3Cl)C2=O)cc([N+](=O)[O-])c1O	-5.4%	35.5µM*	.	?	.	.	.	-36.4%
COc1cccc(CC(=O)N2CCCC(CCC(=O)N3CCN(c4ccccn4)CC3)C2)c1 (stereo not given)	0.0%	-17.6%	.	?	.	-29.7%[46.1 µM]	-32.7%	1.6%
COc1ccc(S(=O)(=O)N2CCCC2)cc1NC(=O)c1ccccc1	8.9%	56.2%	.	-21.2%	.	8.2%[46.1 µM]	28.8%	-1.0%
COc1ccc(/C=N/Nc2nc(C)nc(N)n2)cc1	0.3%	1.4%	.	48.4%[activator]	.	?	14.4%	2.7%
Cn1ccnc1COc1ccc(/C=N/O)cc1	1.1%	0.8%	.	20.3%	.	19.9%[46.1 µM]	27.1%[46.1 µM]	1.9%
Fc1cccc(-c2ncc(-c3ccccc3)o2)c1	.	-16.8%	.	63.8%[activator]	.	1.3%	?	.
CCCOc1ccc(C(=O)NCC(c2cccs2)N(C)C)cc1OC (stereo not given)	9.1%	10.0%	-9.9%	5.6%	2.5%	23.0%	19.0%	9.6%
CCOC(=O)CN(C(=O)COc1nc(-c2ccccc2)cc(C)c1C#N)c1ccc(F)cc1	0.4%	6.7%	.	-19.6%	.	.	.	-2.3%
COc1cc(N)c(Cl)cc1Cl	-2.9%	1.0%	.	-3.1%	.	0.3%[46.1 µM]	5.4%	.
O=C(Nc1nccs1)c1cccc2ccccc12	6.7%	-15.4%	.	-10.4%	.	.	.	-12.6%
CCOc1ccc(N(CC)S(=O)(=O)N2CCCC(C(=O)Nc3ccc(NC(C)=O)cc3)C2)cc1 (stereo not given)	.	.	?	-27.8%	-5.2%	.	-19.6%[46.1 µM]	.
Cc1ccc(Nc2nc(-c3sc(NC(=O)c4cccc(Cl)c4)nc3C)cs2)cc1	1.3%	.	3.98µM*	.	6.3%	3.1%	.	24.5%
CCOc1ccc(CN2CCNC(=O)C2CC(=O)NCc2cc(C)n(C)n2)cc1 (stereo not given)	5.0%	-1.3%	.	4.5%	.	2.1%	3.8%	-0.9%
COCCn1cnc2c1c(=O)n(CC#N)c(=O)n2Cc1ccccc1	-0.9%	1.6%	.	9.2%	.	17.5%[46.1 µM]	-1.1%	2.1%
Cc1ccc(NC(=O)CC2(CC(=O)O)CCCC2)c(C)c1	-0.6%	3.6%	.	-13.8%	.	22.5%[46.1 µM]	-3.5%[46.1 µM]	1.2%
O=C1CCC(=O)N1c1ccccc1	1.6%	0.9%	.	-6.3%	.	-12.1%	1.7%	8.5%
O=C(O)c1ccc(S(=O)(=O)Nc2ccc3c(c2)OCCO3)cc1	-2.5%	9.6%	.	7.8%	.	?	-0.8%	15.3%
O=C(NCC(=O)N(c1ccc(Cl)cc1)C(C(=O)NC1CCCC1)c1cccnc1)c1ccco1 (stereo not given)	-0.3%	9.4%	.	-16.4%	.	0.2%[46.1 µM]	19.1%[46.1 µM]	-4.8%
CCc1cccc(C)c1NC(=O)CN1C(=O)NC(Cc2ccccc2)C1=O (stereo not given)	-0.7%	7.0%	.	1.8%	.	-5.5%[46.1 µM]	-2.5%	.
Cc1ncc(CN2CCCC(C(=O)c3sccc3C)C2)s1 (stereo not given)	0.8%	4.3%	.	-13.0%	.	-14.7%[46.1 µM]	2.4%[46.1 µM]	-1.1%
COc1cccc(CN2CCN(Cc3cccc4nonc34)CC2CCO)c1 (stereo not given)	0.0%	-4.0%	.	-15.2%	.	1.7%[46.1 µM]	-9.7%	-1.7%
CN(C)S(=O)(=O)c1cccc(NC(=O)CC23CC4CC(CC(C4)C2)C3)c1	4.7%	0.8%	.	6.7%	.	14.4%[46.1 µM]	?	14.3%
FC(F)(F)c1ccc2c(c1)N1CCCC1CN2 (stereo not given)	-1.1%	-11.5%	.	-20.2%	.	?	-7.5%	-1.9%
Cc1oc(-c2cccs2)nc1CSCC(=O)N1CCC2(CC1)OCCO2	5.5%	-6.9%	14.4%	?	-6.3%	?	5.7%	?
COC(=O)c1[nH]c2cc(OC)ccc2c1NC(=O)CN1CCC(C(N)=O)(N2CCCCC2)CC1	9.2%	-2.9%	-2.8%	-17.0%	-1.0%	2.4%	-17.3%	-17.2%
COCCNC(=S)N1CCC(Cc2ccccc2)CC1	-0.7%	8.7%	.	-11.2%	.	.	.	-6.7%
CC(=O)NNC(=S)Nc1cccc(F)c1	-1.1%	2.2%	.	13.6%	.	-5.0%[46.1 µM]	-14.2%[46.1 µM]	6.7%
COc1cc(/C=N/Nc2ccccc2)ccc1O	-1.6%	90.2%	.	9.1%	.	?	-25.3%[46.1 µM]	1.7%
O=C(NCc1cn2ccsc2n1)c1cccs1	4.4%	3.3%	6.9%	-5.5%	-2.4%	-2.6%	.	-13.1%
O=S1(=O)N=C(N(CCO)/N=C/c2ccc(Br)cc2)c2ccccc21	-1.3%	-2.1%	.	-25.0%	.	.	.	0.2%
Cn1cc(C(=O)OCC(=O)NC2(C#N)CCCCC2)c2ccccc21	-2.6%	-23.4%	.	-20.6%	.	?	11.6%	.
Cc1nn(-c2ccccc2)c2c1N(CC(=O)N1CCN(c3ccc(Cl)cc3)CC1)C(=O)CS2	.	.	-1.5%	-10.7%	-2.3%	.	14.5%[46.1 µM]	.
Cc1cc(C)c2c(CC(=O)O)c(C)[nH]c2c1	-0.4%	-6.9%	.	4.7%	.	7.6%[46.1 µM]	19.6%	-1.6%
Cc1cc(C)nc(NC(=S)NC(=O)c2ccccc2)n1	1.6%	4.4%	.	19.8%	.	6.9%	21.3%	22.6%
CCn1c(CNc2nc3ccccc3n2C(C)C)nc2ccccc21	7.1%	-11.2%	-3.4%	0.0%	1.9%	?	-5.4%	0.4%
CC(C)Oc1ccccc1NC(=O)CSc1nccn1C	-1.8%	40.8%	6.5%	4.8%&4.5%	-2.2%	?	?	0.0%
CCc1nnc(NC(=O)C2CCCN2C(=O)Nc2ccc(C)cc2)s1 (stereo not given)	-0.8%	2.5%	.	-0.5%	.	-8.7%[46.1 µM]	13.3%[46.1 µM]	2.4%
Cc1ccc2nc3sc(C(=O)Nc4ccc(F)cc4)cc3cc2c1	2.2%	.	?	39.7%[activator]	-1.1%	.	13.4%[46.1 µM]	.
COc1ccc(CCNC2=CC(=O)CC(C)(C)C2)cc1	-1.6%	0.0%	.	52.2%[activator]	.	0.6%[46.1 µM]	6.4%[46.1 µM]	-3.4%

# Other entries:
SMILES	SARS PLpro yeast	RE007 growth inh	Cruzain inh noDet	2A StopGo	Cruzain Triton	MARV entry inh	LASV entry inh	NS1 inh
CCOc1ccc(C(CC(=O)O)NC(=O)c2cccs2)cc1OC (stereo not given)	-0.6%	-0.6%	.	-3.4%	.	-0.3%[46.1 µM]	16.3%	-1.4%
Cc1cc2c(c(=O)o1)C1(C(=O)N(CC(=O)O)c3ccccc31)C(C#N)=C(N)O2 (stereo not given)	3.7%	0.6%	-6.7%	8.3%	2.7%	?	-0.3%	6.9%
Cc1ccc(N(CC(=O)O)S(=O)(=O)c2cccc3nonc23)cc1	-1.2%	-5.8%	-8.1%	0.8%	2.0%	26.4%[46.1 µM]	12.3%	13.8%
CCn1c(C(C)NC(=O)c2cccs2)nc2ccccc21 (stereo not given)	2.7%	3.1%	-8.7%	-2.2%	0.8%	.	.	-11.4%
N#Cc1ccccc1S(=O)(=O)N1CCN(CC(O)c2ccccc2)CC1 (stereo not given)	-1.0%	-25.8%	.	-15.3%	.	-7.3%	-17.1%	.
O=C(Nc1cccc(F)c1)c1cccc(S(=O)(=O)N2CCOCC2)c1	14.0%	2.6%	-15.3%	?	-1.0%	18.4%	-2.9%	-2.9%
CCOC(=O)c1sc(=S)n(-c2ccc(F)c(F)c2)c1N	-6.0%	-1.8%	?	6.4%	0.5%	9.9%	13.2%	-116.1%
O=C(NC1CCC(O)CC1)c1ccc(-c2ccc([N+](=O)[O-])cc2)o1 (stereo not given)	-0.9%	22.3%	.	13.4%	.	.	.	12.1%
Cc1ccsc1/C=N\NC(=O)CCc1c(C)n[nH]c1C	-0.4%	10.1%	.	35.3%[activator]	.	3.8%[46.1 µM]	3.4%	-0.8%

# Assay outcomes as filed in PubChem.
